Menin MLL FP FL: menin-MLL binding inhibition, fluorescein peptide; Fluorescence polarization, fluorescein-MLL peptide displacement from menin; FP activity change, % at 61.4 µM; 290,000 tested, under 10 active; AID 1766; inconclusive = falling polarisation curve, or a change in total fluorescence; inactive = total fluorescence flat and polarisation flat or rising; no compound was filed as active; the % refers to the polarisation; negative = inhibition;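 further: % of control where 0% means no effect; inhibitors lower the polarisation; unlabelled MLL peptide was the positive control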
ClpP mod: qHTS Assay for Activators of ClpP | ATP-dependent Clp protease proteolytic subunit (Bacillus subtilis (strain 168)), P80244 | purified B. subtilis ClpP, FRET peptide cleavage, 20 min | Potency, µM (highest dose often 57.5 µM), inactives show at the top dose activity change, negative = active | hit rate 1.9% among 340,000 | AID 651965, 2013; active = well fitted falling curve with a large enough effect; inconclusive = small, poorly fitted or top-dose-only effect; inactive = no such curve, though single readings can be large or run the other way; further: potency means the concentration at half of the fitted maximal effect; the source files actives as falling curves though it sought activators and does not explain the sign; nearly all actives have a fitted effect of over 65% in size; many hits overshoot -100%
Target sequence (P80244 whole entry, looked up): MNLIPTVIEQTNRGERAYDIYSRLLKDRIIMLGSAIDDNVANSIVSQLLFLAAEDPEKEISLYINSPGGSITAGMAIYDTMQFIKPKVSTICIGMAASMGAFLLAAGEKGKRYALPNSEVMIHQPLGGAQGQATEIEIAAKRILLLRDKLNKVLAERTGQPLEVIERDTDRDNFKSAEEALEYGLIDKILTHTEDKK
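ClpP 10 microg/mL final, pH 8 Tris/KCl buffer with BSA, glycerol, Tween-20; compound pinned in; FRET-FV substrate; RT 20 min; Ex320/Em430; ΔFRET vs ADEP 5.8 microM, DMSO, no enzyme.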
PINK1 expr mod: PINK1 expression modulation; PINK1 immunofluorescence, high-content cytometry, 24 h; Potency, µM (series often up to 76.6 µM), inactives show at the highest dose activation (PINK1 increase), actives largely listed as activators; hit rate 0.2% among 410,000; AID 624263; active = well fitted activation curve with a large enough effect; inconclusive = small, poorly fitted or top-dose-only effect; inactive = flat fitted curve, though single readings scatter; cell line not stated here;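 further: potency means the concentration at half of the fitted maximal effect; % of control where 0% means no effect; nearly all actives have a fitted effect of over 65% in size; a mitochondrial uncoupler was the plate control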
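A stable cell line was treated with compounds at 5 concentrations for 24 hours, with CCCP as control. PINK1 levels and mitochondrial localization were measured by immunofluorescence with mitochondrial, cell and nuclear markers after fixation, read by laser-scanning cytometry.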
D2 agonist: human D2 receptor agonism in beta-arrestin assay | activation, % (no concentration beside the values) | AID 624465 | hit rate 0.084% among 360,000 | DiscoveRx PathHunter D2 beta-arrestin, luminescence, 90 min; 100% = 57 uM dopamine signal; in the data active = activation above about 40%; inconclusive = about 15% to 40%; inactive = below about 15%; further: compound concentration not given in the record; the text of the record calls up to 30% inactive
Target sequence (P14416 whole entry, looked up): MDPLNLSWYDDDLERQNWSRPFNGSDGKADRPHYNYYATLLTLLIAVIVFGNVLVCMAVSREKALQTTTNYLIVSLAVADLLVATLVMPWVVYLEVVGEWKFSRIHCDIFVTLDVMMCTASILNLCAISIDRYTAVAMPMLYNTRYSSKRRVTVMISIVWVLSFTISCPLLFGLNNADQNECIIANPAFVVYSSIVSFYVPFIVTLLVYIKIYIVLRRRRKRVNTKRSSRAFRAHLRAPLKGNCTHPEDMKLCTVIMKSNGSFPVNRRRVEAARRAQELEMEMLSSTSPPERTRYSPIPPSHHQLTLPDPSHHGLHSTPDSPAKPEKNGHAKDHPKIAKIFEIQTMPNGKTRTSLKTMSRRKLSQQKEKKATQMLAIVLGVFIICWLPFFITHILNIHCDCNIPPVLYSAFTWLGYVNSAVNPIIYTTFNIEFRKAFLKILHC
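DiscoveRx PathHunter D2 beta-arrestin cells (2,100/well) attached overnight, then compound-stimulated 90 min at 37 C in HBSS/10 mM HEPES/0.1% Tween-20 buffer; beta-galactosidase complementation read by luminescence after 1 h at ambient temperature. Dopamine 57 uM final (EC100) as control.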
Sfp inh: blocks B. subtilis Sfp PPTase activity; Q9F4F7; Biochemical Sfp PPTase activity, qHTS; Potency, µM, without a hit: max response, negative = inhibition, usual class: inhibitors; hit rate 3.5% among 310,000; AID 1490; active means well fitted inhibition curve with a large enough effect; inconclusive means small, poorly fitted or top-dose-only effect, or another doubt; inactive means no such curve, though single readings can be large or run the other way;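 further: the enzyme is Sfp with the accession as filed and its product quenches rhodamine fluorescence; potency means the concentration at half of the fitted maximal effect; 0% = enzyme reaction without inhibitor and -100% = no enzyme wells; top concentration of the series not given in the record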
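Sfp 15 nM + cpd, 15 min RT; start w/ rhodamine-CoA 5 uM, BHQ-2-YbbR 12.5 uM (final); 50 mM Hepes pH 7.6, 10 mM MgCl2, 0.01% NP-40, 0.01% BSA; read 525/598 nm at 0 and 30 min.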
gsp agonist: agonists of gsp mutant (McCune-Albright syndrome). gsp mutant cells, cAMP HTRF, 30 min; control for the full effect not named in the record. hit rate 0.13% among 340,000. Potency, µM (series often up to 76.9 µM), for the others: at the highest dose activation (cAMP increase), most hits filed as activators; active = well fitted activation curve with a large enough effect; inconclusive = small, poorly fitted or top-dose-only effect, or another doubt; inactive = no such curve, though single readings can be large or run the other way; cell line not stated here;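 further: phosphodiesterase inhibitor Ro 20-1724 added with compounds to block cAMP breakdown; potency means the concentration at half of the fitted maximal effect; nearly all actives have a fitted effect of over 60% in size; about a fifth of the inactives were tested at one dose only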
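Cells stably selected in G418 were plated at 2000/well, grown 16-24 hr, then given compounds in DMSO with the PDE inhibitor […] (300 uM solution added) for 30 min at 37C; cAMP was read by HTRF.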
gsp antagonist: gsp mutant antagonism; gsp-mutant cells, cAMP HTRF, 30 min; control for the full effect not named in the record; Potency, µM (top dose mostly 76.9 µM), for inactives: top-dose activity change, negative = inhibition, most hits filed as inhibitors; hit rate 0.4% among 340,000; AID 624288; active = falling curve of any shape with a large fitted effect; inconclusive = falling curve, mostly with a smaller effect; inactive = flat or rising curve; cell line not stated here;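 further: intracellular cAMP measured with PDE inhibitor Ro 20-1724 present during compound exposure; potency means the concentration at half of the fitted maximal effect; on the % scale 0 is the no-effect control and ±100 the full control effect; nearly all actives have a fitted effect of over 65% in size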
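Cells in G418 medium, seeded 16-24 h, 37C; buffer exchange to DPBS + 1 mM CaCl2, 0.5 mM MgCl2, 0.05% BSA; cpds in DMSO + […] (300 uM stock), 30 min 37C; HTRF cAMP detection.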
* marks the source's active call; other numbers are inactive results; ? = inconclusive; . = no result given; & = joins results of further samples; [ ] = remark or other dose.

SMILES	Menin MLL FP FL	ClpP mod	PINK1 expr mod	D2 agonist	Sfp inh	gsp agonist	gsp antagonist
CCC(c1nnnn1Cc1cccs1)N1CCN(C(=O)c2ccco2)CC1 (stereo not drawn)	3.9	0.5%	-0.8%	1.0	14%	-23%	5%
CCOC(=O)Cn1cc([N+](=O)[O-])c(OC)n1	6.4	-0.6%	1.8%	-1.7	10%	-54%[inhibitor]	2%
O=C(CN1CCN(Cc2ccccc2)CC1)N1CCN(c2ccccc2)CC1	-1.0	0.5%	0.1%	-4.9	12%	4%	10%
CC(=O)Nc1ccc(S(=O)(=O)NC(CC(=O)NCCc2ccccc2)C(C)C)cc1 (stereo not drawn)	3.1	0.0%	.	-1.4	5%	-6%	1%
CCOC(=O)N1CCN(c2c(NCCCN(CC)Cc3ccccc3)c(=O)c2=O)CC1	1.7	-2.4%	-2.4%[38.3 µM]	-2.3	17%	?	8%
CC(=O)Oc1ccc2nc(CN3C(=O)c4ccc([N+](=O)[O-])cc4C3=O)oc(=O)c2c1	-0.3	.	-0.1%	3.4	-18%	7%[15.4 µM]	-1%
CCCCCc1nnc(NC(=O)Cc2cccs2)s1	3.6	0.2%	-2.5%	-2.6	-4%	-25%	-3%
CCc1sc(C(=O)Nc2ccc(OC)c(S(=O)(=O)N3CCOCC3)c2)cc1C	.	2.8%	0.8%	-1.4	.	-8%	-8%
COc1ccc(-c2ccc(=O)n(Cc3c(F)cccc3Cl)n2)cc1	0.4	3.5%	-1.0%	4.1	-26%	-2%	?
CCc1noc(C)c1C(=O)N1CCCC1	0.0	-2.5%	3.2%[38.3 µM]	2.2	12%	-8%	7%
CCOC(=O)c1c(C)[nH]c(C)c1S(=O)(=O)NCCc1ccco1	-0.5	0.7%	-0.1%	3.9	17%	0%	0%
COc1c2occc2c(OC)c2c(=O)cc(C)oc12	-1.5	-4.4%	1.0%	-2.9	5%&-18%&15%	.	10%
CN(C)CCNC(C(=O)Nc1cccc(C(F)(F)F)c1)c1ccccc1 (stereo not drawn)	0.3	1.5%	-0.5%	-1.9	16µM*	11%	14%
CCO/C=C1/C(=O)N(Cc2ccccc2)C(=O)c2ccccc21	-3.0	-17%	1.1%	2.7	31%	-12%	8%
CCCN1Cc2cccc(C(=O)NCc3ccccc3)c2C1=O	0.7	-1.6%	2.0%[38.3 µM]	-3.3	8%	?	1%
Cc1csc(Sc2ccc(C(=O)OCC(=O)Nc3ccc(F)cc3[N+](=O)[O-])cc2[N+](=O)[O-])n1	1.0	0.3%	-0.7%	-2.1	9%	-13%[15.4 µM]	4%
Cc1cccc(C)c1OCCOCCN1CCN(C)CC1	2.7	0.0%	-2.2%	-7.2&-1.6	-19%	?	4%&4%
CCOC(=O)C1CCN(C(=O)CCCNC(=O)Cn2cnc3sc(C)c(C)c3c2=O)CC1	-3.2	-2.2%	2.7%	2.9	7%	-4%[15.4 µM]	5%
Cn1cc(/C=C2\SC(=S)N(NC(=O)c3cccc(Cl)c3)C2=O)c2ccccc21	?	0.5%	1.0%	-1.0	23%	-9%	-48%
Cc1ccc(CNC(=O)COC(=O)c2cnc(C)cn2)cc1	-0.9	.	-1.1%	-2.4	24%	-2%	-7%
COC(=O)c1cc(CN2C(=O)c3ccccc3C2=O)c(O)c([N+](=O)[O-])c1	-0.2	1.0%	-3.2%	-9.9	1%	?	-1%
COc1ccc(S(=O)(=O)NC(=O)C2(C)CCN2C(=O)CC2CCCC2)cc1 (stereo not drawn)	.	3.7%	0.5%	-5.6	.	.	.
COc1ccc(NC(=O)Nc2cccc3c2O[C@H](CN(C)S(=O)(=O)c2ccccc2)[C@@H](C)CN([C@H](C)CO)C3=O)cc1	.	1.4%	0.8%	0.1	.	.	-19%
COc1ccc(-c2cc(C)no2)cc1S(=O)(=O)NCCCN1CCN(c2ccccc2)CC1	.	0.1%	1.8%	7.4	-5%	-47%[inhibitor]	0%
O=C(CCCOc1ccccc1)Nc1nnc(C2CCCO2)s1 (stereo not drawn)	2.1	-0.9%	-2.1%	-3.4	-5%	-2%	8%
CC(=O)Nc1ccc(NC(=O)C(C)OC(=O)c2ccc3[nH]c(C)c(C)c3c2)cc1 (stereo not drawn)	.	.	6.2%	-3.2	.	-1%[15.4 µM]	0%
Cc1ccc(N(CC(=O)NCc2ccncc2)S(C)(=O)=O)cc1	-0.9	-12%	-4.1%	0.1	-8%	-10%	9%
CCC(=O)N1CCC1(C)C(=O)Nc1ncc(C)s1 (stereo not drawn)	.	-18%	0.1%	-4.5	.	.	.
CN(Cc1ccccc1)C(=O)c1cc(-c2ccc(Br)cc2)on1	3.6	-2.1%	-1.3%[38.3 µM]	-3.0	-9%	-2%	-5%
Cc1cc(C)nc(NS(=O)(=O)c2ccc(N=Cc3c(C)[nH]n(-c4ccccc4)c3=O)cc2)n1	0.4	0.5%	2.1%	1.3	8%	2%[15.4 µM]	-7%
O=C(NC1CCN(Cc2ccccc2)CC1)c1ccccc1Cl	0.9	-0.1%	-0.9%	-3.8	17%	?	-5%
Cc1ccc(NC(=O)CCn2cc(C(F)(F)F)ccc2=O)cc1	-1.2	-2.4%	4.4%	-6.5	4%	-32%[15.4 µM]	2%
c1ccc(Cn2nnc3c(N4CCN(Cc5ccc6c(c5)OCO6)CC4)ncnc32)cc1	2.1	?	-5.9%[38.3 µM]	-2.1	10%	0%	-5%
Cc1ccccc1Nc1c(-c2ccc(N3CCOCC3)cc2)nc2ncccn12	2.2	-0.5%&-0.2%	0.1%&0.6%	-2.0	10%	?	-9%
CC(C)NC(=O)C1(C)Cc2c(-c3cccc(C(F)(F)F)c3)ccnc2O1 (stereo not drawn)	.	-3.8%	5.9%	-3.3	.	.	.
COc1ccccc1C(O)c1ncc(-c2cccc(C(F)(F)F)c2)[nH]1 (stereo not drawn)	.	-0.5%	7.8%	-2.9	.	.	.
Cc1ccc(NS(=O)(=O)c2cccc(C(=O)N3CCOCC3)c2)cc1	4.7	0.2%	-1.5%	-2.3	-6%	-32%	-5%
CCO[C@@H]1OC(C(=O)Nc2ccccc2)=C[C@H](c2ccccc2)[C@H]1CCCO	-0.4	1.2%	-1.3%	-2.7	9%	.	-8%
COc1ccccc1N/C(N)=N/c1nc(C(F)(F)F)cc(=O)[nH]1	?	.	-0.3%	4.0	-29%	18%	3%
Cc1cc(-n2c(C)cc(C(=O)CSc3nncn3C)c2C)no1	.	.	3.5%	2.3	.	1%	7%
CC(=O)Nc1ccc(C(=O)NC2CCSc3ccccc32)cc1 (stereo not drawn)	-3.0	0.2%	0.7%	-1.5	6%	16%	8%
O=C(Oc1ccccc1N1CCOCC1)c1ccccc1	0.7	.	2.0%	0.4	5%	0%[15.4 µM]	9%
CCOC(=O)/C=C1\SCC(=O)N1CC(=O)NCc1cccc(Cl)c1	2.7	1.6%	6.0%	-1.9	9%	12%[15.4 µM]	9%
CCOC(=O)c1c(C)[nH]c(C)c1S(=O)(=O)N(C)CC(=O)Nc1cccc(F)c1	2.6	-0.1%	-0.4%	5.7	5%	-2%	?
Cn1c(=O)c2ncn(CC(=O)NCCOCc3ccccc3Cl)c2n(C)c1=O	3.2	-21%	1.9%	-3.1	16%	30%	7%
CC(=O)Nc1nnc(SCC(=O)N2CCCc3ccccc32)s1	5.8	0.4%	9.2%	0.6	12%	-1%	3%
COC(=O)C1(C)CCc2c(ccc3ccccc23)C1=O (stereo not drawn)	.	5.6%	0.9%	2.0	.	.	.
CC1=C(C(=O)N2CCOCC2)CC(CC(=O)NC2CCCCC2)C(=O)N1Cc1ccc(F)cc1 (stereo not drawn)	.	0.6%	-1.8%	-3.2	.	-151%[inhibitor]	.
NC(=O)CCN1CCN(Cc2cn[nH]c2-c2cccc3ccccc23)CC1	1.2	.	2.5%	-2.1	10%	16%	8%
C/C(CC(=O)NCc1ccc(Cl)cc1)=N\NC(=O)c1ccccc1F	-1.3	.	-0.3%	-3.8	12%	-5%[15.4 µM]	10%
O=C(Nc1ccccc1F)c1cnccn1	-0.4	.	2.2%	3.1	11%	-2%[15.4 µM]	.
CC1CC(=O)Nc2ccccc2N1S(=O)(=O)c1cccs1 (stereo not drawn)	-5.9	-0.3%	2.4%	-7.1	9%	9%[15.4 µM]	-3%
CN(C(=O)CSc1nnc(-c2ccccc2F)n1N)C1CCCCC1	.	1.3%	1.3%	-4.0	.	-15%	2%
Cc1c(C(=O)OCC(=O)N2CCCCC2C)oc2ccccc12 (stereo not drawn)	.	-17%	2.5%	12	.	-38%[inhibitor]	4%
O=C(c1ccc(Cl)s1)N(Cc1nnc(-c2ccccc2Cl)o1)C1CC1	.	-1.9%	0.0%	3.0	.	-6%	?
Cc1ccc(S(=O)(=O)NCC(=O)NCC(=O)N(C)Cc2ccc3ccccc3c2)cc1C	4.2	8.5%	2.5%	-7.4	-17%	-8%[15.4 µM]	-21%
CC(C)(C)C1C/C(=C/c2ccccn2)C(=O)/C(=C/c2ccccn2)C1 (stereo not drawn)	-0.3	-0.5%	-0.7%	-8.9	?	-23%	-21%

Exported with values under each structure: three of the compounds above
Results follow in this order: Menin MLL FP FL | ClpP mod | PINK1 expr mod | D2 agonist | Sfp inh | gsp agonist | gsp antagonist
- CN(C(=O)CSc1nnc(-c2ccccc2F)n1N)C1CCCCC1
→ . | 1.3% | 1.3% | -4.0 | . | -15% | 2%
- Cc1c(C(=O)OCC(=O)N2CCCCC2C)oc2ccccc12 (stereo not drawn)
→ . | -17% | 2.5% | 12 | . | -38%[inhibitor] | 4%
- O=C(c1ccc(Cl)s1)N(Cc1nnc(-c2ccccc2Cl)o1)C1CC1
→ . | -1.9% | 0.0% | 3.0 | . | -6% | ?

High-throughput results from PubChem.
